Compound activity (PubChem)
Marburg entry inh: blocks Marburg virus binding to or entry into cells; AID 540276; Marburg virus pseudotyped entry inhibition, cell reporter; control for the full effect not named in the record; about a third of the inactives were read at about 46 µM; actives 1.8% (n = 300,000); Potency, µM (highest dose often 37.8 µM), inactives show top-dose activity change, negative = inhibition, usual class: inhibitors; active = well fitted inhibition curve with a large enough effect; inconclusive = small, poorly fitted or top-dose-only effect, or effect the other way; inactive = flat fitted curve, though single readings scatter; tested in HEK293 cells; about a fifth of its hits are not listed in these tables; note: % is set by controls: 0 for no effect and ±100 for the full control effect; luciferase read-out
RE007 growth inh: less growth of the S. pombe RE007 Vpr strain; AID 651644; actives 0.21% (n = 360,000); S. pombe RE007 Vpr strain, BacTiter-Glo ATP luminescence, 24 h; control for the full effect not named in the record; Potency, µM (series often up to 92.2 µM), inactives show at the highest dose activity change, negative = less growth; active = well fitted falling curve with a large enough effect; inconclusive = small, poorly fitted or top-dose-only effect; inactive = no such curve, though single readings can be large or run the other way;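 note: % is set by controls: 0 for no effect and ±100 for the full control effect; nearly all actives have a fitted effect of over 50% in size; the assay follows cell death caused by Vpr and the record does not say whether a fall means rescue or toxicity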
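Fission yeast strain RE007, carrying one chromosomally integrated HIV-1 vpr copy, was seeded at OD 0.01 in PMG+AL medium with 23 nL pinned compound. After 24 h at 30 °C and 99% humidity, viability was read by BacTiter-Glo luminescence.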
NS1 function inh: influenza NS1 inhibition; AID 2326; S. cerevisiae slowed by influenza A NS1, growth recovery by OD600; actives 0.4% (n = 270,000); Potency, µM (series often up to 46.1 µM), without a hit: at the top dose activity, positive = more growth; active means well fitted rising curve with a large enough effect; inconclusive means small, poorly fitted or top-dose-only effect; inactive means no such curve, though single readings can be large or run the other way; note: nearly all actives have a fitted effect of over 50% in size
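Compounds were scored for reversing the slow growth caused by influenza A NS1 in S. cerevisiae, measured by optical density at 600 nm. Assay medium contained 2% galactose at pH 6.0; NS1-free yeast of the same strain were the positive control.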
Cruzain noTriton: blocks cruzain activity in detergent-free assay | P25779 | actives 2.3% (n = 200,000) | Potency, µM, inactives show max response, negative = inhibition, usual class: inhibitors | purified cruzain, Z-FR-AMC fluorescence, no detergent;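 note: plate controls were enzyme without inhibitor for no effect and buffer without enzyme for full effect; nearly all actives have a fitted effect of over 40% in size; top concentration of the series not given in the record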
Target sequence (P25779 123-467 limits assumed): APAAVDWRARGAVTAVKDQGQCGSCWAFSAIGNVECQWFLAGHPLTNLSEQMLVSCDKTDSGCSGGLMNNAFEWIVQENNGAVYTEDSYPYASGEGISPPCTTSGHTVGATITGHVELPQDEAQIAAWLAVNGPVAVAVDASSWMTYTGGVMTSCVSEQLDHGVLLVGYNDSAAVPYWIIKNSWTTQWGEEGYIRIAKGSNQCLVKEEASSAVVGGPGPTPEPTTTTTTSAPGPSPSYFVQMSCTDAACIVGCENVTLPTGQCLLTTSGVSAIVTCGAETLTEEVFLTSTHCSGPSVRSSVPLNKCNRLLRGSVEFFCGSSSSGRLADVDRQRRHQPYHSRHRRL
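Detergent-free condition (0.00005% Triton X-100) in acetate buffer pH 5.5 with DTT. 1.5 nM enzyme and compound were pre-mixed 15 min, then 2 uM Z-FR-AMC substrate added; reaction progress from fluorescence change between first and third reads (60 s).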
SARS PLP yeast: blocks SARS-CoV papain-like protease in a yeast assay; Potency, µM (series often up to 32.9 µM), without a hit: at the top dose activity, positive = growth rescue; S. cerevisiae expressing SARS-CoV PLpro, growth rescue; control for the full effect not named in the record; actives 0.19% (n = 330,000); AID 485353; active means well fitted rising curve with a large enough effect; inconclusive means small, poorly fitted or top-dose-only effect; inactive means no such curve, though single readings can be large or run the other way; note: 0% is about no effect; nearly all actives have a fitted effect of over 55% in size; growth read by luminescence after 48 h
Cruzain inh Det: cruzain (T. cruzi) inhibition with detergent; P25779; purified cruzain, Z-FR-AMC fluorescence, 0.01% Triton; Potency, µM, for inactives: max response, negative = inhibition, most hits filed as inhibitors; actives 0.43% (n = 200,000);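 note: plate controls were neutral wells for no effect and buffer without enzyme for full effect; nearly all actives have a fitted effect of over 40% in size; top concentration of the series not given in the record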
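Enzyme 1.5 nM, Z-FR-AMC 2 uM, NaOAc 100 mM pH 5.5, DTT 5 mM, Triton X-100 0.01%; 15 min RT compound preincubation; kinetic ex360/em450, 60 s delta.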
LASV entry inh: inhibitors of Lassa virus binding or cell entry | Lassa virus pseudotype entry inhibition, cell reporter; control for the full effect not named in the record | actives 1.2% (n = 300,000) | Potency, µM (titrated, usually from 37.9 µM), for the others: at the highest dose activity change, negative = inhibition, actives largely listed as inhibitors | AID 540256; active means well fitted inhibition curve with a large enough effect; inconclusive means small, poorly fitted or top-dose-only effect, or effect the other way; inactive means flat fitted curve, though single readings scatter; tested in HEK293 cells; note: % is set by controls: 0 for no effect and ±100 for the full control effect; nearly all actives have a fitted effect of over 50% in size; luciferase read-out
2A StopGo: FMDV 2A StopGo reporter, luciferase signal; human cells with a luciferase reporter of 2A StopGo recoding; control for the full effect not named in the record; Potency, µM (doses to about 57.9 µM), without a hit: at the top dose signal change, negative = less light; actives 1.2% (n = 410,000); active = well fitted falling curve with a large enough effect; inconclusive = small, poorly fitted or top-dose-only effect; inactive = no such curve, though single readings can be large or run the other way; tested in HEK293T cells; note: % is set by controls: 0 for no effect and ±100 for the full control effect; nearly all actives have a fitted effect of over 45% in size; luciferase light after 4 h
Starred values were filed as active, the others as inactive; ? = inconclusive; nt = no result given; & = joins results of further samples; [ ] = remark or other dose. Unless noted, calls come from the whole dose curve; as a rule, active = well fitted curve in the direction sought with a large enough effect; inconclusive = small, poorly fitted or top-dose-only effect, or another doubt; inactive = no such curve, though single readings can be large; an effect the other way counts as inactive or inconclusive. Potency is the fitted concentration of half-maximal effect. Not a hit list; overall some 4.7% were active at least once.

SMILES | Marburg entry inh | RE007 growth inh | NS1 function inh | Cruzain noTriton | SARS PLP yeast | Cruzain inh Det | LASV entry inh | 2A StopGo
Cc1cc(NC(=O)C2CCC2)n(-c2ccccn2)n1 | -5% | -6% | -17% | 9% | 0% | 1.1% | -10% | 6%
Cc1cccc(-c2nc(SCC(=O)NCC3CCCO3)c3c(=O)n(C)c(=O)n(C)c3n2)c1 (configuration not stated) | nt | nt | nt | 3% | nt | 8.7% | -6%[46.1 µM] | 0%
O=[N+]([O-])c1ccc(NCc2ccccn2)nc1 | ? | -4% | 13% | -24% | -8% | -6.4% | ? | 28%
COc1ccc(NC(=O)NCCc2c[nH]c3ccccc23)c(OC)c1 | nt | -8% | 1% | nt | -6% | nt | nt | -21%
O=C(Cn1cnc2ccccc2c1=O)c1ccc(OC(F)F)cc1 | ? | 2% | -51% | nt | 0% | nt | ? | 24%
Cc1ccc(S(=O)(=O)Nc2cccc3c2CCCC3)cc1 | -7% | -14% | -21% | 3% | -45% | -12% | 2% | 23%
OCC1CCCN(c2nc(CN3CCCCC3)nc3scc(-c4ccccc4)c23)C1 (configuration not stated) | ? | -15% | -9% | -2% | -5% | -2.8% | ? | 0%
NC(=O)CSc1nc2c(oc3ccccc32)c(=O)n1Cc1ccccc1 | -7%[46.1 µM] | nt | nt | 1% | nt | -1.0% | nt | -7%
CN1CCN(c2ccc(NC(=O)c3ccc(-c4ccccc4F)o3)cc2)CC1 | ? | 14% | nt | nt | -3% | nt | ? | 17%
CN1C(=O)/C(=C/c2cccn2-c2ccc3ccccc3c2)C(=O)NC1=S | ? | -26% | -59% | 9% | -12% | -9.0% | ? | 28µM*
O=C(Nc1cccc(-c2cscn2)c1)C1CCN(Cc2ccccn2)CC1 | nt | -10% | 4% | nt | 0% | nt | nt | -17%
CCOc1ccc(N(C(=O)c2cnsn2)C(C(=O)NC2CCCCC2)c2ccncc2)cc1 (configuration not stated) | ? | 3% | -2% | 5% | 13% | -1.3% | ? | -14%
CCOC(=O)/C(=N/Nc1ccccc1)Sc1nnnn1-c1ccc(C)cc1 | -7% | 2% | -4% | 2% | 6% | -5.2% | 0% | -6%
COc1cccc(/C=C/C(=O)NCc2cn3cc(Cl)ccc3n2)c1OC | -18%[46.1 µM] | ? | -7% | nt | -5% | nt | 2% | 22%
Cc1cc(-c2n[nH]c(=S)n2/N=C/c2cc([N+](=O)[O-])ccc2Cl)n[nH]1 | ? | 11% | ? | -26% | -8% | -0.8% | 13% | -23%
CCOC(=O)C(C)c1c(C)[nH]c(=S)[nH]c1=O (configuration not stated) | 5% | -3% | 5% | -1% | 0% | 1.9% | -18% | 8%
CS(=O)(=O)OCCCCOS(C)(=O)=O | nt | 6%[18.4 µM] | nt | 16%&4%&-1% | nt | -1.1%&0.7%&1.2% | nt | -10%&-11%
O=C(O)c1ccccc1-c1ccccc1C(=O)NNc1ccccc1 | 25% | 193% | -5% | -6% | -18% | -3.4% | -2% | 1%
CC1Cc2cc(/C(O)=C3\C(=O)C(=O)N(CCN4CCOCC4)C3c3ccccc3F)ccc2O1 (configuration not stated) | 6%[46.1 µM] | 20% | -9% | 0% | -2% | -6.2% | 19% | -6%
O=C(COC(=O)[C@@H]1CC(O)CN1S(=O)(=O)c1ccccc1[N+](=O)[O-])c1ccccc1 (some centres not stated) | 1%[46.1 µM] | 11% | nt | nt | -1% | nt | 3%[46.1 µM] | 10%
COc1cc2ccccc2cc1C(=O)OCC(=O)N(CC(C)C)c1c(N)n(Cc2ccccc2)c(=O)[nH]c1=O | -20% | -8% | nt | nt | 1% | nt | -25% | 0%
Cc1cc(C)c2cc(CN(Cc3ccc4c(c3)OCO4)Cc3nnnn3Cc3ccco3)c(=O)[nH]c2c1 | ? | 5% | ? | -27% | 0% | -8.0% | ? | 30%
[O-]/[N+](=C/c1ccc(F)cc1)c1ccc(Cl)cc1 | ? | -16% | -1% | 2% | 4% | 3.1% | 2% | 32%[activator]
Cc1cc(Cl)c2oc(C(=O)N3CCN(c4ccncc4)CC3)c(C)c2c1 | 3.5µM* | 6% | nt | nt | nt | nt | ? | -15%
COC(=O)c1c(C(=O)OC)n(CCCN)c2ccc(C)cc12 | 8.2µM* | 5% | -2% | 0% | 1% | -5.4% | ? | 4%
CNC(=O)c1c(NC(=O)C2=COCCO2)sc2c1CCN(C(=O)OC)C2 | -1% | 9% | nt | nt | -1% | nt | -4% | -6%
CC(C)(C)NC(=O)C(c1ccc(O)cc1)N(Cc1ccco1)C(=O)Cn1nnc(-c2cccs2)n1 (configuration not stated) | ? | -7% | 7% | 13% | 16% | -5.8% | -20% | nt
CCCn1c2ccccc2c2nc3ccccc3nc21 | 2% | -17% | -131% | 13% | -4% | -8.7% | -18% | -21%
O=C(COc1ccc(Br)cc1)N1CCc2ccccc2C1 | ? | 13% | -49% | nt | -1% | nt | 8%[46.1 µM] | 11%
CC(=O)CSc1nnc(Cc2ccc3c(c2)OCO3)o1 | 2% | 0% | 3% | 19% | -13% | 2.8% | -16% | 24%
N/C(=N\OC(=O)C(c1ccccc1)c1ccccc1)c1ccncc1 | ? | 5% | -9% | nt | -1% | nt | ? | -18%
CCCCC(c1nnnn1CC1CCCO1)N1CCN(c2cccc(C)c2C)CC1 (configuration not stated) | ? | 14% | -63% | 13% | -1% | -1.8% | ? | -9%
CCN(CC(=O)Nc1c(F)cccc1F)C(=O)c1cc(C)oc1C | -1% | 7% | nt | nt | -4% | nt | 0% | -7%
CC(=O)c1ccccc1OCCn1nc(C(=O)O)c2ccccc2c1=O | 1%[46.1 µM] | 0% | 21% | nt | 3% | nt | 30% | -24%
CCOC(=O)c1sc2nc(C)nc(NCc3ccccc3OC)c2c1C | ? | -1% | -8% | nt | 1% | nt | -14%[46.1 µM] | ?
COc1ccc(NC(=O)[C@H](CCS(C)(=O)=O)N2Cc3ccccc3C2=O)c(OC)c1 | 7% | 2% | -3% | 1% | -7% | 5.6% | nt | -1%
COc1ccc(C(=O)c2sc(Nc3ccccc3)nc2N)cc1OC | ? | 10% | 1% | nt | 1% | nt | -28% | ?
COc1ccccc1NC(=O)c1ccccc1C(=O)N(C)Cc1ccccc1 | -15% | 1% | nt | nt | -7% | nt | -16% | -5%
O=C(Nc1ccc(-c2nc3ccccc3s2)cc1)C1=COCCO1 | 0.79µM* | -19% | 7% | ? | -5% | ? | 2µM* | 10µM*
COC(=O)C1(C)Nc2ccccc2C(=O)N1c1ccccc1OC (configuration not stated) | 6% | 15% | -9% | 4% | -4% | -1.3% | 9% | -17%
O=C1c2ccccc2CN1C(CO)c1ccccc1 (configuration not stated) | nt | 4% | 0% | nt | 0% | nt | nt | -20%
Cc1cccc(C)c1NC(=S)NN(Cc1ccccc1)c1ccccc1 | ? | -20% | 13% | 0% | 14% | -1.4% | 1% | -12%
CN(C(=O)COC(=O)c1ccccc1C(=O)c1ccccc1)c1ccccc1 | -2% | 8% | nt | nt | -4% | nt | 1% | -17%
Cc1ccc2nsnc2c1S(=O)(=O)N1CCN(Cc2ccc3c(c2)OCO3)CC1 | -2% | -4% | -5% | 14% | 0% | -1.8% | -2% | nt
Cc1ccc(N(Cc2ccccc2)C(=O)c2cccc(S(=O)(=O)N3CCOCC3)c2)cc1 | -20% | 42% | nt | nt | 4% | nt | -18% | 57%[activator]
Cc1ccc(C)c(NS(=O)(=O)c2ccc3c(c2)NC(=O)CCS3)c1 | -13%[46.1 µM] | 8% | 21% | nt | -6% | nt | -21%[46.1 µM] | -3%
CC12CCC(=O)N1C(C(=O)Nc1ccc(F)c(F)c1F)CS2 (configuration not stated) | 21% | 6% | nt | nt | -4% | nt | -1% | ?
CCN(C(=O)COc1cc(=O)n(CC)c2ccccc12)c1cc(Cl)ccc1OC | nt | 0% | -13% | ? | 0% | -2.4% | nt | ?
COc1ccc(COC(=O)c2nc3nc(C)cc(C)n3n2)cc1F | 7%[46.1 µM] | 13% | 2% | -2% | 4% | 2.7% | -23% | -7%
CCOC(=O)c1c(NC(=O)c2ccncc2)sc(C)c1C | -23% | -10% | nt | nt | 0% | nt | 1% | -14%

Later entries:
SMILES | Marburg entry inh | RE007 growth inh | NS1 function inh | Cruzain noTriton | SARS PLP yeast | Cruzain inh Det | LASV entry inh | 2A StopGo
Cc1nc2ccc([N+](=O)[O-])cc2c(=O)n1Cc1ccc(Br)cc1 | ? | -16% | 6% | nt | -9% | nt | -4%[46.1 µM] | 5%
COc1ccc(-n2c(SCC(=O)Nc3ccc(Cl)c(C)c3)nc3n[nH]c(C)c3c2=N)cc1 | nt | nt | nt | -5% | nt | -1.7% | ? | -13%
O=C(c1ccccc1)N1CCN(c2ccc([N+](=O)[O-])c(NCC3CCCO3)c2)CC1 (configuration not stated) | -18%[46.1 µM] | -8% | -12% | nt | -3% | nt | ? | -22%
CCN1CCN(c2nc3ccccc3n3cnnc23)CC1 | nt | -19% | 7% | nt | 1% | nt | nt | 6%
COc1ccccc1Cn1nc(C(=O)O)c2ccccc2c1=O | ? | 7% | -14% | nt | 11% | nt | nt | 16%
Cc1ccc(C(=O)CSc2nnc3ccc4ccccc4n23)cc1 | 29%[46.1 µM] | nt | nt | -9% | nt | -2.9% | 4%[46.1 µM] | 13%
COC(=O)c1ccc(COc2ccc(/C=N/Nc3cccc(C(=O)O)c3)cc2)cc1 | nt | 10% | -5% | nt | -1% | nt | nt | -29%
CCC(C)NC(=O)CCn1ccc2cc(S(=O)(=O)N3CCCC3)ccc21 (configuration not stated) | nt | -2% | 10% | nt | 1% | nt | nt | -7%
COc1cc(Cl)c(C)cc1NC(=O)CNC(=O)Cn1cnc2ccccc2c1=O | -19% | 11% | 8% | ? | -2% | 5.8% | -6% | 16%
CCOc1ccccc1NC(=O)Cn1c(=O)n(Cc2ccccc2)c(=O)c2c3c(sc21)CN(C(C)=O)CC3 | -3%[46.1 µM] | nt | nt | ? | nt | 0.0% | nt | -19%
